# RE007 growth inh: less growth of the S. pombe RE007 Vpr strain. AID 651644. actives 0.21% (n = 360,000). S. pombe RE007 Vpr strain, BacTiter-Glo ATP luminescence, 24 h; control for the full effect not named in the record. Potency, µM (highest dose often 92.2 µM), inactives show at the highest dose activity change, negative = less growth; active = well fitted falling curve with a large enough effect; inconclusive = small, poorly fitted or top-dose-only effect; inactive = no such curve, though single readings can be large or run the other way;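 note: % is set by controls: 0 for no effect and ±100 for the full control effect; nearly all actives have a fitted effect of over 50% in size; the assay follows cell death caused by Vpr and the record does not say whether a fall means rescue or toxicity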
#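 Fission yeast RE007 carrying one integrated HIV-1 vpr copy, seeded at OD 0.01 in PMG+AL medium with 23 nL pinned compound. Grown 24 h at 30 degrees; viability read by BacTiter-Glo luminescence after 5 min.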
# SARS PLpro yeast: SARS-CoV PLP inhibition in yeast; actives 0.19% (n = 330,000); Potency, µM (series often up to 32.9 µM), for the others: at the top dose activity, positive = growth rescue; S. cerevisiae expressing SARS-CoV PLpro, growth rescue; control for the full effect not named in the record; note: 0% is about no effect; nearly all actives have a fitted effect of over 55% in size; growth read by luminescence after 48 h
# NS1 function inh: blocks influenza NS1 protein function. S. cerevisiae slowed by influenza A NS1, growth recovery by OD600. Potency, µM (top dose mostly 46.1 µM), inactives show at the top dose activity, positive = more growth. actives 0.4% (n = 270,000); note: actives are rising curves; nearly all actives have a fitted effect of over 50% in size
#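 Compounds were scored for reversing the slow growth caused by influenza A NS1 in S. cerevisiae, measured by optical density at 600 nm. Assay medium contained 2% galactose at pH 6.0; NS1-free yeast of the same strain were the positive control.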
# Cruzain noTriton: inhibitors of Trypanosoma cruzi cruzain without detergent; P25779; purified cruzain, Z-FR-AMC fluorescence, no detergent; Potency, µM, for the others: max response, negative = inhibition, most hits filed as inhibitors; actives 2.3% (n = 200,000); active = well fitted curve in the direction sought with a large enough effect; inconclusive = small, poorly fitted or top-dose-only effect, or another doubt; inactive = no such curve, though single readings can be large; an effect the other way counts as inactive or inconclusive;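 note: plate controls were enzyme without inhibitor for no effect and buffer without enzyme for full effect; nearly all actives have a fitted effect of over 40% in size; top concentration of the series not given in the record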
# Target sequence (P25779 123-467 limits assumed): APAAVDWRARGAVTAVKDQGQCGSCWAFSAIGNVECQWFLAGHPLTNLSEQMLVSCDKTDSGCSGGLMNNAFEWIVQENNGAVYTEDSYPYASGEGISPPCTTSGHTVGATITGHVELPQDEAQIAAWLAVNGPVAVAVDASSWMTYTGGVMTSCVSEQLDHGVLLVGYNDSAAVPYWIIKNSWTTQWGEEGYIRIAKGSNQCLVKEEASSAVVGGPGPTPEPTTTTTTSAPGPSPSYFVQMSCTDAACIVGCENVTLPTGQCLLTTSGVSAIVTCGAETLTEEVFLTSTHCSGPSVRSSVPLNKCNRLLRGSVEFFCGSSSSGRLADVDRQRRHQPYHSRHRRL
#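 Detergent-free condition (0.00005% Triton X-100) in acetate buffer pH 5.5 with DTT. 1.5 nM enzyme and compound were pre-mixed 15 min, then 2 uM Z-FR-AMC substrate added; reaction progress from fluorescence change between first and third reads (60 s).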
# LASV entry inh: blocks Lassa virus binding to or entry into cells; Lassa virus pseudotype entry inhibition, cell reporter; control for the full effect not named in the record; Potency, µM (highest dose often 37.9 µM), inactives show top-dose activity change, negative = inhibition, usual class: inhibitors; actives 1.2% (n = 300,000); active means well fitted inhibition curve with a large enough effect; inconclusive means small, poorly fitted or top-dose-only effect, or effect the other way; inactive means flat fitted curve, though single readings scatter; tested in HEK293 cells; note: % is set by controls: 0 for no effect and ±100 for the full control effect; nearly all actives have a fitted effect of over 50% in size; luciferase read-out
# Marburg entry inh: blocks Marburg virus binding to or entry into cells; Marburg virus pseudotyped entry inhibition, cell reporter; control for the full effect not named in the record; about a third of the inactives were read at about 46 µM; Potency, µM (doses to about 37.8 µM), without a hit: at the top dose activity change, negative = inhibition, most hits filed as inhibitors; actives 1.8% (n = 300,000); active = well fitted inhibition curve with a large enough effect; inconclusive = small, poorly fitted or top-dose-only effect, or effect the other way; inactive = flat fitted curve, though single readings scatter; tested in HEK293 cells; about a fifth of its hits are not listed in these tables; note: % is set by controls: 0 for no effect and ±100 for the full control effect; luciferase read-out
# Cruzain Triton: inhibitors of Trypanosoma cruzi cruzain with detergent; P25779; purified cruzain, Z-FR-AMC fluorescence, 0.01% Triton; Potency, µM, inactives show max response, negative = inhibition, usual class: inhibitors; actives 0.43% (n = 200,000); AID 1478; active = well fitted curve in the direction sought with a large enough effect; inconclusive = small, poorly fitted or top-dose-only effect, or another doubt; inactive = no such curve, though single readings can be large; an effect the other way counts as inactive or inconclusive;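 note: plate controls were neutral wells for no effect and buffer without enzyme for full effect; nearly all actives have a fitted effect of over 40% in size; top concentration of the series not given in the record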
#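 Sodium acetate buffer (100 mM, pH 5.5) containing 5 mM DTT and 0.01% Triton X-100 hosted 1.5 nM cruzain and test compound for 15 min at room temperature. Cleavage of 2 uM Z-FR-AMC was then tracked by fluorescence.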
# 2A StopGo: FMDV 2A StopGo reporter, luciferase signal; Potency, µM (doses to about 57.9 µM), for inactives: at the top dose signal change, negative = less light; human cells with a luciferase reporter of 2A StopGo recoding; control for the full effect not named in the record; actives 1.2% (n = 410,000); active = well fitted falling curve with a large enough effect; inconclusive = small, poorly fitted or top-dose-only effect; inactive = no such curve, though single readings can be large or run the other way; tested in HEK293T cells; note: % is set by controls: 0 for no effect and ±100 for the full control effect; nearly all actives have a fitted effect of over 45% in size; luciferase light after 4 h
# * = called active by the depositor; u = inconclusive; x = no result given; & = joins results of further samples; [ ] = dose if it differs, or a comment. Unless noted, calls come from the whole dose curve; as a rule, active means well fitted rising curve with a large enough effect; inconclusive means small, poorly fitted or top-dose-only effect; inactive means no such curve, though single readings can be large or run the other way. Potency is the fitted concentration of half-maximal effect.
SMILES,RE007 growth inh,SARS PLpro yeast,NS1 function inh,Cruzain noTriton,LASV entry inh,Marburg entry inh,Cruzain Triton,2A StopGo
O=C(NNC(=O)c1ccc[nH]1)c1cccc(C(F)(F)F)c1,-3%,0%,8%,x,x,x,x,-8%
Cc1csc(SCC(=O)Nc2ccccn2)n1,4%,-1%,-4%,-6%,12%,29%[46.1 µM],3.4%,8%
FC(F)(F)c1nnc2n1N=C(c1cccs1)CS2,8%,-3%,x,x,x,7%[46.1 µM],x,12%
Cc1ccc(NC(=O)Cn2ccnc2)cc1C,-9%,u,0%,x,x,x,x,-4%
CC(C)(C)c1ccc(C(=O)N2CCN(C(=O)c3cccs3)CC2)cc1,12%,-8%,x,x,-26%[46.1 µM],u,x,-21%
Cc1ccc(-c2c[n+]3c(n2-c2ccccc2)SCC3)cc1,-8%,-1%,0%,x,x,x,x,u
Cc1cccc(/C=N/NC(=O)Cn2nccc2C)n1,-6%,5%,1%,1%,19%,u,-0.9%,-7%
Cc1ccccc1C(=O)O/N=C/c1c(N2CCOCC2)n(C)c2ccccc12,u,-22%,-276%,-3%,-16%,u,5.8%,u
COc1cccc(CNS(=O)(=O)c2c(C(=O)N3CCCC3)c(C)n(C)c2C)c1,4%,-1%,5%,x,x,x,x,-9%
CC(C)(C)c1cnnn1-c1ccc(C=O)cc1,-15%,4%,-7%,1%,-15%,6%,0.5%,1%
COC1OC2COC(c3ccccc3)OC2C(O)C1NC(=O)c1ccccc1 (stereo not drawn),u,x,x,x,-3%,26%,x,-20%
Cc1c(Br)c([N+](=O)[O-])nn1CC(=O)N(C)Cc1ccccc1,10%,0%,-1%,x,14%,4%,x,-3%
CCOC(=O)N1CCC(NC(=O)c2ccc3c(c2)N(Cc2ccc(Cl)cc2)C(=O)c2ccccc2S3(=O)=O)CC1,x,x,x,26%,-26%[46.1 µM],u,-0.5%,1%
COCCn1c(SCC(=O)N(C)c2c(N)n(Cc3ccccc3)c(=O)[nH]c2=O)nnc1-c1cccc(C)c1,2%,1%,x,x,-13%,-6%,x,-6%
O=C(O)CC/C(=N\NC(=O)CNC(=O)c1cccc(Cl)c1)c1ccccc1,-1%,0%,x,x,-1%,29%[46.1 µM],x,-1%
COc1ccc(-n2nnc3c(=O)n(CC(=O)N4CCC(C)CC4)cnc32)cc1,7%,2%,-19%,-7%,x,x,-3.6%,u
CCCC(=NCCc1c(C)[nH]c2ccccc12)C1=C(O)CC(c2ccccc2)CC1=O (stereo not drawn),-14%,-17%,12%,-15%,u,u,-2.7%,-19%
CCOC(=O)N1CCC(NC(=O)C2CCC(Cn3c(=O)[nH]c4ccccc4c3=O)CC2)CC1 (stereo not drawn),-8%,x,17%,x,-20%,8%,x,-2%
c1ccc(N2CCN(c3nnnn3-c3ccccc3)CC2)cc1,18%,-3%,-90%,-1%,u,0%,2.4%,-2%
CCC1CCCCN1C(=S)Nc1ccc(OC(F)F)cc1 (stereo not drawn),4%,10%,15%,3%,-10%,0%,-3.2%,32%[activator]
O=C1CCCc2nc(N3CCN(Cc4ccccc4)CC3)ncc21,-20%,-21%,-4%,-2%,-25%,16%,2.9%,u
CCC(=O)c1ccc(OCC(=O)Nc2cc(S(=O)(=O)N3CCCCC3)ccc2N2CCN(CC)CC2)cc1,-21%,-5%,x,x,u,u,x,-6%
Cc1ccc(C(=O)N/C(=C\c2cn(S(=O)(=O)N(C)C)c3ccccc23)C(=O)NCCN2CCOCC2)cc1,-7%,-3%,-9%,x,x,x,x,11%
CN(CC(=O)Nc1c(Cl)cccc1Cl)C(=O)CNC(=O)C1CCCCC1,0%,5%,20%,x,9%,u,x,-20%
O=C1CSC(c2cccnc2)N1Cc1ccc(Cl)cc1 (stereo not drawn),37%,-1%,-4%,x,27%[46.1 µM],-8%[46.1 µM],x,-13%

# Remaining list, next part:
SMILES,RE007 growth inh,SARS PLpro yeast,NS1 function inh,Cruzain noTriton,LASV entry inh,Marburg entry inh,Cruzain Triton,2A StopGo
CCN(Cc1ccncc1)Cc1nc(Cc2ccccc2Cl)no1,-3%,-4%,-31%,x,x,x,x,u
O=Nc1onc(-c2ccc([N+](=O)[O-])cc2)c1NO,-26%,-2%,x,x,u,u,x,-21%
Cc1nn(Cc2c(Cl)cccc2Cl)c(C)c1NC(=O)CCCn1nc([N+](=O)[O-])c(Cl)c1C,-7%,8%,3%,u,-14%,-37%,-1.5%,-19%
CN(C)CCCN(C(=O)c1ccc(S(=O)(=O)N(C)C2CCCCC2)cc1)c1nc2ccc(Br)cc2s1,-3%,0%,-2%,x,u,u,x,-20%
Cn1nc(C(F)(F)F)c(/C=N/OC(=O)c2ccccc2)c1SCc1ccc(Cl)cc1,26%,-2%,-4%,4%,2%,u,-1.8%,-9%
CCCC(=O)Nc1cc(C)c(NC(=O)c2cccs2)cn1,-15%,3%,x,x,9%,4%[46.1 µM],x,32%[activator]
CC(=O)c1c(C)[nH]c(C(=O)Nc2cccc(C#N)c2)c1C,3%,1%,6%,x,25%,-2%[46.1 µM],x,-5%
C(=N/n1c2ccccc2c2ccccc21)/c1ccco1,u,-1%,-46%,-14%,-2%,-23%[46.1 µM],-7.7%,-19%
Cc1ccccc1-c1nc(CS(=O)CC(=O)NCCc2ccc(Cl)cc2)c(C)o1 (stereo not drawn),18%,2%,10%,u,-25%[46.1 µM],u,-8.6%,-16%&0%
O=C(NCCN1C(=O)S/C(=C/c2ccccc2)C1=O)C1CCCN1C(=O)c1cccs1 (stereo not drawn),-2%,0%,-6%,11%,4%,u,-6.8%,0%
O=C(CSc1ccccn1)Nc1cccc([N+](=O)[O-])c1,-11%,-10%,x,x,22%,10%[46.1 µM],x,35%[activator]
Cc1c(C(=O)NCCCN2CCCC2=O)oc2c(Cl)cccc12,-17%,1%,x,x,u,u,x,-6%
COc1cc(NC(N)=S)c(OC)cc1Cl,8%,1%,5%,x,-25%[46.1 µM],6%[46.1 µM],x,7%
O=C(CCNC(=O)c1ccco1)NCc1ccc(C(=O)O)cc1,-5%,4%,x,x,24%,5%,x,-9%
CP(C)(=O)CCC(=O)O,2%,2%,-6%,2%,10%,12%[46.1 µM],4.6%,-15%
CCn1c(C)nc2cc(OC)ccc21,-9%,1%,x,x,1%,17%[46.1 µM],x,-9%
CN(CC1CCCO1)S(=O)(=O)c1ccc(C(=O)Nc2nccs2)cc1 (stereo not drawn),-4%,-2%,-10%,x,x,x,x,32%[activator]
COc1cc(/C=C2\N=C(c3ccccc3)OC2=O)ccc1OCc1c(C)no[n+]1[O-],8%,15%,-1%,u,-9%,4%,-22%,-14%
O=C(NC(=S)NCc1ccncc1)c1ccccc1,-1%,0%,0%,x,x,x,x,6%
Cc1csc(NC(=O)CSc2nnc(-c3ccncc3)o2)n1,9%,-3%,6%,12%,4%,-15%,4.0%,-8%
O=C(O)c1cccc(N2C(=O)C3CC=C(Cl)CC3C2=O)c1 (stereo not drawn),17%,5%,1%,-1%,x,x,0.4%,5%
CCC(C)C12CN3CCN(CC(C)(C3)C1=O)C2 (stereo not drawn),-1%,-1%,-2%,1%,9%,u,4.0%,-24%
CC(C)(C)NC(=O)NC(=O)COC(=O)Cc1ccc(Cl)cc1Cl,-4%,-8%,x,x,23%,-1%[46.1 µM],x,-18%
CC1=C(C(=O)Nc2cccc(C(=O)NC3CCCCC3C)c2)SCCO1 (stereo not drawn),-6%,21%,-6%,x,x,x,x,-27%
O=C1CC2(CCN(C(=O)c3ccccc3Cl)CC2)Oc2ccccc21,-10%,-2%,x,x,u,-23%[46.1 µM],x,-24%

# Additional entries
SMILES,RE007 growth inh,SARS PLpro yeast,NS1 function inh,Cruzain noTriton,LASV entry inh,Marburg entry inh,Cruzain Triton,2A StopGo
O=C(Nc1cccc2c1CCCC2)c1ccncc1,3%,14%,-6%,-12%,1%,7%,1.9%,x
O=C(CSc1nc(-c2ccccc2)cs1)NCc1ccco1,6%,-10%,-9%,-5%,3%,u,-3.2%,-6%
O=C(NC(CCl)c1ccccc1)c1ccc(Cl)cc1 (stereo not drawn),-12%,1%,4%,x,-10%,u,x,6%
C=CCN1C(=O)C2(c3ccccc31)C1CCCC=C1C(C#N)=C(N)C2(C#N)C#N (stereo not drawn),-15%,-4%,-6%,14%,-2%,0%,-5.1%,u
COc1ccc(Nc2nnc(-c3cc4cc(Cl)ccc4oc3=O)s2)cc1,x,x,x,-10%,15%[46.1 µM],x,-0.9%,-7%
COc1ccc(Cl)cc1NC(=O)Cn1nnc(C(=O)NCc2cccs2)c1N,x,x,x,u,-23%[46.1 µM],u,-1.1%,-8%
CCOC(=O)c1cccc(NC(=O)CN2C(=O)C3CC=CCC3C2=O)c1 (stereo not drawn),33%,15%,1%,x,0%,8%,x,-14%

# Arranged by heavy-atom count (lowest first): 6 of the compounds above.
SMILES,RE007 growth inh,SARS PLpro yeast,NS1 function inh,Cruzain noTriton,LASV entry inh,Marburg entry inh,Cruzain Triton,2A StopGo
O=C(Nc1cccc2c1CCCC2)c1ccncc1,3%,14%,-6%,-12%,1%,7%,1.9%,x
O=C(CSc1nc(-c2ccccc2)cs1)NCc1ccco1,6%,-10%,-9%,-5%,3%,u,-3.2%,-6%
O=C1CC2(CCN(C(=O)c3ccccc3Cl)CC2)Oc2ccccc21,-10%,-2%,x,x,u,-23%[46.1 µM],x,-24%
COc1ccc(Nc2nnc(-c3cc4cc(Cl)ccc4oc3=O)s2)cc1,x,x,x,-10%,15%[46.1 µM],x,-0.9%,-7%
COc1ccc(Cl)cc1NC(=O)Cn1nnc(C(=O)NCc2cccs2)c1N,x,x,x,u,-23%[46.1 µM],u,-1.1%,-8%
C=CCN1C(=O)C2(c3ccccc31)C1CCCC=C1C(C#N)=C(N)C2(C#N)C#N (stereo not drawn),-15%,-4%,-6%,14%,-2%,0%,-5.1%,u

# Bioassay records deposited in PubChem BioAssay by National Center for Advancing Translational Sciences (NCATS).
